NPYLR7 agonist – mosquito NPYLR7 agonism. 270,000 compounds, 0.15% hits. activation, % at 10 µM. HEK293T NPYLR7/Galpha15, GCaMP6s calcium fluorescence; in the data active means activation above about 40%;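 further: 0% = vehicle and 100% = reference agonist at the receptor; some compounds past the cut are filed as inactive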
NPYLR7 agonist max-min – second read-out of NPYLR7 agonist, no call of its own (marks repeat the call); activation, %; measured here: Max-Min RFU normalised activation; some inactives read as strong as hits;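 span of the calcium signal over five minutes; 0% = vehicle and 100% = native peptide agonist; compound fluorescence can raise it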
Active calls of the source: *. Not all compounds are listed; rates above refer to the full screens.

1: c1cncc(-c2nc(NC3CCCC3)c3c4c(sc3n2)CCC4)c1
2: Cc1sc2ncnc(Nc3ccc(CN4CCOCC4)cc3)c2c1C
3: CCCC(CCC)C(=O)Nc1cc(-c2cccs2)nn1-c1nc(C)cc(=O)[nH]1
4: C=CCn1c(-c2ccc(C)cc2)n[nH]c1=S
5: CC(C)Oc1ccc(CNC(=O)NCC(O)c2cccn2C)cc1F (configuration not stated)
6: COc1ccc(CCN(C)c2cc(C(F)(F)F)nc(SCc3ccc(C(=O)O)o3)n2)cc1OC
7: Cc1nn(CC(=O)Nc2ccccn2)c(=O)c2ccccc12
8: CCCCNc1nnc(SCC(=O)NC(C)c2ccccc2C)s1 (configuration not stated)

| screen / no. | 1 | 2 | 3 | 4 | 5 | 6 | 7 | 8 |
| --- | --- | --- | --- | --- | --- | --- | --- | --- |
| NPYLR7 agonist | 1 | -26 | -2 | 0 | 0 | 4 | 5 | -1 |
| NPYLR7 agonist max-min | 1 | -25 | -3 | 0 | -2 | 13 | 6 | 2 |

7 entries from above in a different format.
nr | compound | NPYLR7 agonist | NPYLR7 agonist max-min
2 | Cc1sc2ncnc(Nc3ccc(CN4CCOCC4)cc3)c2c1C | -26 | -25
3 | CCCC(CCC)C(=O)Nc1cc(-c2cccs2)nn1-c1nc(C)cc(=O)[nH]1 | -2 | -3
4 | C=CCn1c(-c2ccc(C)cc2)n[nH]c1=S | 0 | 0
5 | CC(C)Oc1ccc(CNC(=O)NCC(O)c2cccn2C)cc1F (configuration not stated) | 0 | -2
6 | COc1ccc(CCN(C)c2cc(C(F)(F)F)nc(SCc3ccc(C(=O)O)o3)n2)cc1OC | 4 | 13
7 | Cc1nn(CC(=O)Nc2ccccn2)c(=O)c2ccccc12 | 5 | 6
8 | CCCCNc1nnc(SCC(=O)NC(C)c2ccccc2C)s1 (configuration not stated) | -1 | 2

Continuation:
9: CCOc1ccc(NC(=O)Cn2cnc3c(nnn3-c3ccccc3)c2=O)cc1
10: O=S(=O)(Cc1ccccc1)NCC(c1ccsc1)N1CCCCCC1 (configuration not stated)
11: CC(=O)N1CCC(c2n[nH]c(=O)n2Cc2ccccc2)CC1
12: CSc1ccccc1C(=O)C1CCCN(C(=O)CCc2cccs2)C1 (configuration not stated)
13: CCc1ccc(S(=O)(=O)NCCc2csc3nc(-c4cccs4)nn23)s1
14: O=C(NCC(=O)N1CCOC(COCc2cccc(C(F)(F)F)c2)C1)c1ccco1 (configuration not stated)
15: CN1CCNC(=O)C12CCN(C(=O)C[C@@H]1C[C@@H]3C=C[C@H]1C3)CC2
16: Cn1c(=O)[nH]c2nc[nH]c2c1=O

| screen / no. | 9 | 10 | 11 | 12 | 13 | 14 | 15 | 16 |
| --- | --- | --- | --- | --- | --- | --- | --- | --- |
| NPYLR7 agonist | 5 | 6 | 6 | 16 | -1 | 16 | 5 | -10 |
| NPYLR7 agonist max-min | 4 | -5 | 3 | 5 | 0 | 30 | 4 | -14 |

17: CC(C)(C)SCC(=O)Nc1cc(Cl)cc(Cl)c1
18: Cc1cc(C)nc(N=Cc2nc(-c3ccc(Cl)cc3)oc2O)c1
19: CCOC(=O)C(Cc1ccc(Cl)cc1)NC(=O)c1c(C)oc(C)c1-c1ccccc1 (configuration not stated)
20: O=C(c1ccccc1Nc1ccccc1)N1CCC(n2c(=O)[nH]c3ccccc32)CC1
21: Fc1ccc(C2CC(c3ccc(-c4ccccc4)cc3)=Nc3ncnn32)cc1F (configuration not stated)
22: Cc1cccn2c(CNC(=O)[C@@]34CC[C@@](C)(OC3=O)C4(C)C)cnc12
23: CCC(C)(C)NC(=O)c1ccc(S(=O)(=O)NCCC#N)cc1
24: CCn1nnc2c(=O)n(Cc3ccccc3)cnc21

| screen / no. | 17 | 18 | 19 | 20 | 21 | 22 | 23 | 24 |
| --- | --- | --- | --- | --- | --- | --- | --- | --- |
| NPYLR7 agonist | 11 | -10 | -11 | -5 | 23 | 18 | 1 | 0 |
| NPYLR7 agonist max-min | 6 | -15 | -17 | -11 | 21 | 5 | -1 | 16 |

25: CC(C)C(CNc1ccc(S(=O)(=O)N2CCOCC2)cc1[N+](=O)[O-])N1CCCCCC1 (configuration not stated)
26: O=C(NCc1ccccc1Cl)C1CCN(c2ncnc3c2sc2ncccc23)CC1
27: CCn1nc(C(=O)O)c2c1CCC(NCC1CCOCC1)C2 (configuration not stated)
28: COc1ccccc1Cn1c(C)c(C(=O)NCc2ccc(C#N)cc2)sc1=O
29: CN1CCN(CC(=O)N/N=C\C2CC=CCC2)CC1 (configuration not stated)
30: Cc1cc(C)nc(N2CCN(CCOc3cccc(C)c3C)CC2)n1
31: CC1CCc2c(sc3nn[nH]c(=O)c23)C1 (configuration not stated)
32: C/C(=N\N1CCN(C)CC1)c1ccc2c3c(cccc13)CC2

| screen / no. | 25 | 26 | 27 | 28 | 29 | 30 | 31 | 32 |
| --- | --- | --- | --- | --- | --- | --- | --- | --- |
| NPYLR7 agonist | 5 | -3 | 4 | 41 | -12 | -2 | -1 | 2 |
| NPYLR7 agonist max-min | 4 | -7 | 1 | 33 | -21 | -5 | -4 | -2 |

33: COc1cccc(N2C(=O)CN(C(=O)c3ccccc3C(F)(F)F)CC2C)c1 (configuration not stated)
34: Cc1ccc2cc(CCNC(=O)CCC3CCCC3)c(=O)[nH]c2c1
35: CCOc1ccccc1N1CCN(C(=O)c2cccc(Oc3nc(Cc4cccc(OC)c4)ns3)c2)CC1
36: CCC(CCO)NC(=O)Cc1ccc(Br)s1 (configuration not stated)
37: COc1ccc(C(=O)NCCCCN2CCCCC2C)cc1Br (configuration not stated)
38: CC(C)C(=O)Nc1ccc(N(C)C)c(CN(CCN(C)C)C(=O)c2ccc(F)cc2)c1
39: O=C(O)CC1SC(=NN=Cc2ccco2)NC1=O (configuration not stated)
40: Cc1cccc(CO[C@]2(C(=O)NC3CC3)CC(OCc3ccccc3C#N)[C@@H]3OC(C)(C)O[C@@H]3C2)c1 (some centres not stated)

| screen / no. | 33 | 34 | 35 | 36 | 37 | 38 | 39 | 40 |
| --- | --- | --- | --- | --- | --- | --- | --- | --- |
| NPYLR7 agonist | 2 | 1 | 11 | 3 | 5 | -2 | 13 | 5 |
| NPYLR7 agonist max-min | 0 | 35 | 8 | 7 | 2 | 9 | 22 | 5 |

41: CCN(CC(C)(C)O)C(=O)Cc1ccc(C(F)(F)F)cc1
42: CC1C(=O)N(c2cccc(Br)c2)CCN1C(=O)c1ccco1 (configuration not stated)
43: CC1CCCN(S(=O)(=O)N2C(C)CC2(C)C)C1 (configuration not stated)
44: S=C(NN=CC1CC=CCC1)NC1CCCCC1 (configuration not stated)
45: CC1CCC2(CC1)OCC(C(=O)NC(C)C)N2C(=O)CC(C)(C)C (configuration not stated)
46: CN(C)CC1(O)CCCN(C(=O)c2ccc(N(C)C)c3ccccc23)CC1 (configuration not stated)
47: c1ccc(CCc2nc(CCN3CCCO3)n(-c3ccccn3)n2)cc1
48: CC(C)CCn1c(SCc2ccccc2Cl)nc2c1c(=O)[nH]c(=O)n2C

| screen / no. | 41 | 42 | 43 | 44 | 45 | 46 | 47 | 48 |
| --- | --- | --- | --- | --- | --- | --- | --- | --- |
| NPYLR7 agonist | 5 | -2 | 0 | 0 | 13 | 3 | 6 | -1 |
| NPYLR7 agonist max-min | 4 | 4 | -1 | 2 | 6 | 2 | 2 | -1 |

49: Cc1cc2c(cc1Cl)N(C(=O)Nc1ccc(Oc3cccnc3C)nc1)CC2
50: CN(Cc1cccs1)C(=O)c1ccc2oc(CCc3ccccc3)nc2c1
51: O=C(NCC1CCCN(C(=O)CCc2cnccn2)C1)c1ccc(-c2ccccc2)cc1 (configuration not stated)
52: CN1CCC2(CCC1=O)CCN(c1nccc3ccccc13)CC2
53: O=C(Cn1cnc2sc(-c3ccccc3)cc2c1=O)NC1CCOc2ccccc21 (configuration not stated)
54: CCCCCN(CC(=O)Nc1cc(-c2ccccc2)nn1-c1ccccc1)C(=O)CCc1ccccc1
55: CC(C)N1CCC(NC(=O)c2cnc3onc(CC(C)(C)C)c3c2)C1 (configuration not stated)
56: CC(NC(=O)c1ccc(Cl)c([N+](=O)[O-])c1)c1nnc(SCc2ccc(F)cc2)n1-c1ccc([N+](=O)[O-])cc1 (configuration not stated)

| screen / no. | 49 | 50 | 51 | 52 | 53 | 54 | 55 | 56 |
| --- | --- | --- | --- | --- | --- | --- | --- | --- |
| NPYLR7 agonist | 5 | 16 | 3 | 8 | -1 | 15 | -20 | -12 |
| NPYLR7 agonist max-min | -14 | 12 | 2 | 4 | 1 | 17 | -20 | -13 |

57: COC(=NC1CCCc2ccccc21)NC(=O)c1cccc(C(F)(F)F)c1 (configuration not stated)
58: CCN(CC)c1ccc(NC(=O)C2CCN(C(=O)c3cccs3)CC2)cc1
59: CCOc1ccc(-c2cc3c(=O)n(CC(=O)Nc4cc(OC)ccc4OC)ncn3n2)cc1
60: CCN(CC)C1CCN(Cc2ccc(C(=O)Nc3cnn(C)c3)cc2)C1 (configuration not stated)
61: COc1ccc(C(=O)C2CCCN(Cc3ccnc(C(C)C)n3)C2)cc1F (configuration not stated)
62: O=C(Nc1c2c(nn1-c1ccccc1)CS(=O)(=O)C2)C12CC3CC(CC(C3)C1)C2
63: COc1ccc2cc(C3CN(c4ncccc4F)CCO3)ccc2c1 (configuration not stated)
64: Nc1nc(NCc2ccccc2Cl)n(-c2ccccc2)n1

| screen / no. | 57 | 58 | 59 | 60 | 61 | 62 | 63 | 64 |
| --- | --- | --- | --- | --- | --- | --- | --- | --- |
| NPYLR7 agonist | 19 | 6 | -11 | -3 | -1 | -2 | 7 | -3 |
| NPYLR7 agonist max-min | 21 | 11 | -16 | -1 | -3 | -4 | 3 | 30 |

65: O=C(COc1ccccc1)N[C@H]1[C@H](O)[C@@H]2O[C@H]1c1ccccc12
66: CCN(CC)c1ccc(/C=N\NC(=O)CSc2nnc(-c3ccccc3)n2-c2ccccc2)c(O)c1
67: O=C1C2C3C=CC(C2C(=O)N1c1ccccn1)C1C2C(=O)N(c4ccccn4)C(=O)C2C31 (configuration not stated)
68: CC(=O)N1CCC2(CC1)OC(=O)C(C)=C2C(=O)N1CCCC1
69: Cc1ccc(S(=O)(=O)Nc2nc3ccccc3nc2Nc2ccc3nsnc3c2)cc1
70: CCOC(=O)C1=C(C)NC2=C(C(=O)CC(c3ccc(OC)cc3)C2)C1c1ccc(O)cc1 (configuration not stated)
71: COc1ccc(C(=O)CSc2ccc3nnc(CCNC(=O)c4ccccc4)n3n2)cc1
72: O=C(Nc1ccc(F)cc1)C(C1CCCC1)N1CCN(C(=O)c2ccc(C(F)(F)F)cc2)CC1 (configuration not stated)

| screen / no. | 65 | 66 | 67 | 68 | 69 | 70 | 71 | 72 |
| --- | --- | --- | --- | --- | --- | --- | --- | --- |
| NPYLR7 agonist | 1 | -4 | -13 | 3 | -1 | -2 | -21 | 10 |
| NPYLR7 agonist max-min | -2 | -11 | -16 | 3 | -5 | -3 | -22 | 8 |

73: O=C(O)C1CCN(S(=O)(=O)c2ccc(Br)s2)CC1
74: COc1ccc(Br)c(C(=O)Nc2cc(C(=O)Nc3ccc(F)c(F)c3)ccc2N2CC3CC(C2)c2cccc(=O)n2C3)c1 (configuration not stated)
75: c1ncc(-c2cc(NC3CCCC3)nc3[nH]ccc23)cn1
76: Fc1ccc(Nc2nc(-c3ccc(Cl)cc3)nc3ccccc23)cc1
77: CCN(CC)CCN(C(=O)c1ccc2c(c1)OCCO2)c1nc2c(F)cc(F)cc2s1
78: CCOC(=O)C1=C(C)NC2=C(C(=O)CC(c3ccc(OC)cc3)C2)C1c1cccc(F)c1 (configuration not stated)
79: Cc1cc(C)c(/C=N\O)c(C)c1/C=N\O
80: CNC(=O)c1nnc2n1CCN(C(=O)c1ccc(Oc3ccccn3)cc1)C2

| screen / no. | 73 | 74 | 75 | 76 | 77 | 78 | 79 | 80 |
| --- | --- | --- | --- | --- | --- | --- | --- | --- |
| NPYLR7 agonist | 0 | -7 | 4 | 18 | -9 | -3 | 5 | 6 |
| NPYLR7 agonist max-min | 5 | -2 | 2 | 32 | -8 | -11 | 5 | 2 |

81: COc1ccc(CN(CCN2CCOCC2)CC(O)COCC(C)C)cc1OC (configuration not stated)
82: COc1ncccc1-c1ccc(C(=O)CCC(=O)O)cc1
83: O=C1CN(C(=O)CCCC2CCCCC2)c2ccncc2N1
84: CCc1cccc2c(C(CC(=O)NCCCOC)c3ccc4c(c3)OCO4)c[nH]c12 (configuration not stated)
85: COc1ccc(CCN(Cc2ccc(C)o2)C(=O)CN(CCN2CCCC2)C(=O)c2cccs2)cc1OC
86: CC1CCN(c2c(NCC3CCC(C(=O)N4CCCC(C)C4)CC3)c(=O)c2=O)CC1 (configuration not stated)
87: COc1cccc(CSc2nnc(CNC(=O)Nc3ccccc3F)n2-c2ccc([N+](=O)[O-])cc2)c1
88: CC(C)CC1SCC(C(=O)O)N1C(=O)c1ccccc1 (configuration not stated)
89: Cc1ccccc1CC(=O)N1CCOC(COCc2ccc(F)cc2Cl)C1 (configuration not stated)
90: O=C(/C=C/c1ccccc1Cl)N1CCC(Cc2ccc(-c3ccccc3)cc2)CC1
91: CC(C)CN(Cc1cccc(OS(C)(=O)=O)c1)S(=O)(=O)c1ccc(Br)cc1

| screen / no. | 81 | 82 | 83 | 84 | 85 | 86 | 87 | 88 | 89 | 90 | 91 |
| --- | --- | --- | --- | --- | --- | --- | --- | --- | --- | --- | --- |
| NPYLR7 agonist | 15 | 1 | -2 | 31 | -2 | 3 | -3 | 10 | 19 | 4 | -6 |
| NPYLR7 agonist max-min | 22 | -2 | -4 | 27 | -1 | -1 | 6 | 1 | 22 | 15 | -5 |

Full records, quoted from the list. Values in the order: NPYLR7 agonist	NPYLR7 agonist max-min
Entry for `CC(C)CN(Cc1cccc(OS(C)(=O)=O)c1)S(=O)(=O)c1ccc(Br)cc1` = -6	-5
Entry for `CC(C)CC1SCC(C(=O)O)N1C(=O)c1ccccc1` (configuration not stated) = 10	1
Entry for `COc1cccc(CSc2nnc(CNC(=O)Nc3ccccc3F)n2-c2ccc([N+](=O)[O-])cc2)c1` = -3	6
Entry for `COc1ccc(CN(CCN2CCOCC2)CC(O)COCC(C)C)cc1OC` (configuration not stated) = 15	22
Entry for `CC1CCN(c2c(NCC3CCC(C(=O)N4CCCC(C)C4)CC3)c(=O)c2=O)CC1` (configuration not stated) = 3	-1
